Bioassay records (PubChem)
GIRK2 act: GIRK2 channel activation | HEK293-GIRK2 thallium flux, Thallos fluorescence | calls only for hits at 25 µM | 63,000 compounds, 0.05% hits | AID 1259325;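 active = among the strongest 0.2% of first-round signals and kept after retests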;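 note: first round at about 10 µM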
Target sequence (P48051 whole entry, looked up): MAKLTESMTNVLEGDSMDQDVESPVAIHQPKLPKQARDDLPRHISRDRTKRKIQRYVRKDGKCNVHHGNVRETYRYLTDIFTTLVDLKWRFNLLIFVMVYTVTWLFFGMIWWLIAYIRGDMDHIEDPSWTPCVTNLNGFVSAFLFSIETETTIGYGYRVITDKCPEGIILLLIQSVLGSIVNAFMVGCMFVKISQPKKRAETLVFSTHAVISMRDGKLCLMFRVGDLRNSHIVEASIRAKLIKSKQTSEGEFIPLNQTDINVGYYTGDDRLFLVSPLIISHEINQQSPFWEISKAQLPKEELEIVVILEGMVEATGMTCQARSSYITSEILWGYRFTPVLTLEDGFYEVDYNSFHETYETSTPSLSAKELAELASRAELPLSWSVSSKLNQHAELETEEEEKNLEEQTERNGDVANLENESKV
Calls only; i = inactive. A portion of the library, so the mix of outcomes need not match the whole.

The first two entries (preview)
SMILES	GIRK2 act
C#CC(C)(CC)OCC(O)CN1CCN(c2ccccc2)CC1 (centres undefined)	i
Cc1ccc(S(=O)(=O)NC(C)Cn2nc(C)cc2C)cc1 (centres undefined)	i

All compounds of this part, from the start:
SMILES	GIRK2 act
C#CC(C)(CC)OCC(O)CN1CCN(c2ccccc2)CC1 (centres undefined)	i
Cc1ccc(S(=O)(=O)NC(C)Cn2nc(C)cc2C)cc1 (centres undefined)	i
Cn1cc(C(=O)NCC2CCCO2)c(S(=O)(=O)N2CCN(c3cccc(Cl)c3)CC2)n1 (centres undefined)	i
COc1ccc(CCNC(=O)NNC(=O)c2ccc(=O)n(Cc3ccc(C)cc3)c2)cc1	i
COc1ccc(CC(=O)N2CCN(C(=O)C3CC3c3ccccc3)CC2)cc1 (centres undefined)	i
O=c1ccc(-n2ccnc2)nn1CCNS(=O)(=O)c1ccc2c(c1)OCCO2	i
COc1cccc(N2C(=O)C3N=NN(c4cc(C)cc(C)c4)C3C2=O)c1 (centres undefined)	i
Cc1ccc(-n2c(C)c(C)n3c4c(=O)n(CC(=O)OCc5ccccc5)c(=O)n(C)c4nc23)c(C)c1	i
CC[C@H]1OC(=O)[C@H](C)[C@@H](O[C@H]2C[C@@](C)(OC)[C@@H](O)[C@H](C)O2)[C@H](C)[C@@H](O[C@@H]2O[C@H](C)C[C@H](N(C)C)[C@H]2O)[C@](C)(OC)C[C@@H](C)C(=O)[C@H](C)[C@@H](O)[C@]1(C)O	i
COCCn1c(=O)c2c(nc3n(-c4ccccc4C)c(C)cn23)n(C)c1=O	i
O=C(COc1ccccc1)NCCOc1cc(N2CCCC2)ncn1	i
COc1ccc(CCC(=O)Nc2cc(N3CCC(C)CC3)ncn2)cc1	i
Cn1nc(C(=O)N2CCc3nc(NC(=O)c4ccco4)sc3C2)ccc1=O	i
Cc1cc(C(=O)NCCn2nc(C3CC3)n(-c3ccccc3)c2=O)c(C)o1	i
COc1cccc2cc(C(=O)NCc3nnc(C)o3)oc12	i
Cc1ccc(NS(=O)(=O)c2n[nH]c(C)c2C(=O)Nc2cccc(Cl)c2)cc1	i
COCCNC(=O)C(=O)NCC1CCN(C(=O)c2ccoc2)CC1	i
COc1cc(C2Oc3c(O)cc(CCCO)cc3C2CO)ccc1O[C@@H]1OC[C@@H](O)[C@H](O)[C@H]1O (some centres undefined)	i
C=CCn1c(N)c(C(=O)OCC(C)C)c2nc3ccccc3nc21	i
O=C(c1ccc(S(=O)(=O)NC2CC2)o1)N1CCN(c2ccccc2F)CC1	i
CC(=O)Nc1ccc(S(=O)(=O)NCCNc2cc(-n3cccn3)nc(C)n2)cc1	i
COc1cc(NC(=O)Nc2c(F)cccc2F)ccc1N1CCCC1=O	i
CC(=O)Nc1ccc(SCCCC(=O)N2CCN(c3ccccc3F)CC2)nn1	i
Cc1ccc2[nH]cc(-c3nc(-c4ccc(OC(C)C)cc4)no3)c(=O)c2c1	i
O=C(CSc1ncccc1-c1nc2ccccc2[nH]1)Nc1cccc(F)c1	i
COc1cccc(C(=O)NCc2n[nH]c(=O)c3ccccc23)c1OC	i
COc1ccc(-c2csc(-n3nc(C)cc3NC(=O)C(C)(C)C)n2)cc1OC	i
O=C(NCC(=O)N1CCN(c2ncccn2)CC1)c1ccc(=O)[nH]c1	i
O=C(NCCCc1ccccc1)C1CCN(c2ncccc2-c2nc(-c3ccccc3)no2)CC1	i
O=C(Nc1ccc2c(c1)OCO2)N1CC(c2nc(-c3cnccn3)no2)C1	i
COc1ncc(NC(=O)c2cccc(C(F)(F)F)c2)cn1	i
O=C(CSc1nc2c(-c3ccccc3)c[nH]c2c(=O)n1C1CC1)Nc1ccc(F)cc1F	i
c1ccc(-c2nc(NCc3cccnc3)c3oc4ccccc4c3n2)cc1	i
O=C(Nc1nnc(-c2cc(Cl)sc2Cl)o1)c1ccc2nsnc2c1	i
COc1cc(N2CCN(S(=O)(=O)c3cccc(Cl)c3)CC2)nc(OC)n1	i
O=C(NCc1ccccc1)c1ccc2c(=O)n(Cc3cccc(Br)c3)c(=S)[nH]c2c1	i
Cc1ccc(NC(=O)C(=O)Nc2nc3ccccc3s2)cc1N1CCCC1=O	i
COc1ccc(F)cc1S(=O)(=O)N1CCN(Cc2nc3ccccc3n2Cc2ccccc2)CC1	i
Cc1noc(C)c1CCC(=O)Nc1cc(N2CCN(Cc3ccccc3)CC2)ncn1	i
O=C(Nc1ccc(OC(F)(F)F)cc1)c1cc2n(n1)CCCO2	i
Cc1ccccc1OCC(=O)N1CCC2(CC1)OCCCO2	i
COC(=O)CCn1ccc(=O)[nH]c1=O	i
COc1nn(C)cc1C(=O)Nc1nnc(SC)s1	i
O=C(Nc1c(F)cccc1F)N1CCOC(c2ccccc2)C1 (centres undefined)	i
COc1cc(NC(=O)C2CCCN(c3ccc(-c4ccccc4OC)nn3)C2)cc(OC)c1 (centres undefined)	i
COc1cccc(-n2nnc(C(=O)NC3CCCC3)c2C)c1	i
O=C(CN1N=NC2C(=O)N(c3ccc(F)c(F)c3)C(=O)C21)Nc1ccc(Oc2ccccc2)cc1 (centres undefined)	i
COc1ccc(OCC(O)Cn2c(N3CCCC(C)C3)nc3c2c(=O)[nH]c(=O)n3C)cc1 (centres undefined)	i
CCOc1ccc(NC(=O)N2CCC(CSCc3ccco3)CC2)cc1	i
O=C(Nc1ccccc1F)c1ccc(CNS(=O)(=O)c2cccc(Cl)c2)cc1	i
CCn1cc(C(=O)Nc2ccc(Cl)cc2)c(=O)c2ccc(C)nc21	i
CC1CCCN(c2nccn3c(=O)n(CC(=O)Nc4ccc(Br)cc4)nc23)C1 (centres undefined)	i
O=C(O)CC1=C/C(=C\c2ccc3nccnc3c2)c2ccc(F)cc21	i
COCC(C)NC(=O)c1ccc2nccnc2c1 (centres undefined)	i
Cc1cc(C(=O)NCc2cc(-c3ccncc3)n(C3CCCC3)n2)c(C)o1	i
Cc1c(C)n2c3c(=O)n(C)c(=O)n(C)c3nc2n1CCCN1CCc2ccccc2C1	i
O=C(Nc1ccc(Cl)c(Cl)c1)N1C2CCC1COC2	i
COC(=O)N1CCc2ccc(F)cc2C1C(=O)Nc1cc(Cl)ccc1C#N (centres undefined)	i
O=C(NCCS(=O)(=O)N1CCCC1)c1ccc2c(c1)OCO2	i
CC(=O)Nc1nc(N2CCC(C(=O)NCCCc3ccccc3)CC2)sc1C(=O)N1CCCC1	i

Next records follow.
SMILES	GIRK2 act
COc1cc(NS(=O)(=O)c2ccc(NC(=O)CCCN3C(=O)c4cccc5cccc(c45)C3=O)cc2)nc(OC)n1	i
Cc1ccc(-n2ccnc(SCC(=O)Nc3cccc(C)c3)c2=O)cc1	i
COc1ccc(OC)c(NC(=O)CSC2=NNC3C4CC(c5ccc(F)cc5)NN4C=CN23)c1 (centres undefined)	i
[N-]=[N+]=NCc1ccc(/C=C2\C=C(CC(=O)NCc3ccc(C(=O)c4ccccc4)cc3)c3cc(F)ccc32)cc1	i
O=C1/C(=C/c2cccs2)Oc2cc(OS(=O)(=O)c3ccccc3)ccc21	i
Cc1ccc(S(=O)(=O)N(Cc2cccc(Cl)c2)C(=O)N2CCN(C)CC2)cc1	i
COc1ccc(N2C(=O)C3N=NN(CC(=O)Nc4cccc(Cl)c4)C3C2=O)cc1 (centres undefined)	i
CCOC(=O)c1oc2cc(OC(=O)C(C)(C)C)ccc2c(=O)c1-c1nc2ccccc2s1	i
CN(c1ccc(Cl)cc1)S(=O)(=O)c1ccsc1C(N)=O	i
CCOc1ccc(CNC(=O)CCn2cnc3c([nH]c4ccc(C)cc43)c2=O)cc1OCC	i
COc1cc(Nc2c(C(=O)N3CCCC3)cnc3nc(C)ccc23)c(OC)cc1Cl	i
COc1ccccc1Oc1cncnc1-c1ccc(OCc2cc(C)ccc2C)cc1O	i
COc1ccc(S(=O)(=O)Nc2ccc3c(c2)CCC(=O)N3Cc2ccccc2)cc1	i
COc1ccc(F)cc1S(=O)(=O)N1CCN(CC(=O)c2ccco2)CC1	i
COC(=O)c1ccccc1N(C)C(=O)c1cnn2c1OCCC2	i
CC1CCN(S(=O)(=O)c2ccc([N+](=O)[O-])cc2)CC1	i
COc1ccccc1S(=O)(=O)NCC1(O)CCOc2ccccc21 (centres undefined)	i
COc1ccc(CNC(=O)c2cc3cccc(OC)c3oc2=O)cc1	i
COc1ccc(Br)cc1S(=O)(=O)NCc1sc(C)nc1C	i
COc1ccc(-c2csc3c(=O)n(Cc4ccccc4Cl)cnc23)cc1	i
O=C(Cc1c[nH]c2ccccc12)N1CC(c2nc(-c3ccccn3)no2)C1	i
COc1ccccc1NC(=O)CN1CCC(Cn2c(C(F)(F)F)nc3ccccc32)CC1	i
O=S(=O)(c1ccccc1)N1CCN(c2cc(Nc3ccccn3)ncn2)CC1	i
Cn1cccc1CN(Cc1cccs1)S(=O)(=O)Cc1cccc(Cl)c1	i
O=C(CN1CCN(Cc2nc3ccccc3[nH]2)CC1)Nc1ccc(OC(F)(F)F)cc1	i
Cc1cc(NC(=O)c2ccc([N+](=O)[O-])o2)n(-c2nc3c(cnn3-c3cccc(C)c3C)c(=O)[nH]2)n1	i
CCOC(=O)N1CCN(C(=O)C2CSCCC(=O)N2)CC1 (centres undefined)	i
O=C(Nc1ccc2c(=O)c3cccc(F)c3oc2c1)c1ccco1	i
Cc1ccc(-c2nc(COC(=O)c3nnn(-c4cccc(F)c4)c3C)c(C)o2)cc1	i
COc1cccc(-c2noc(Cn3cccc(S(=O)(=O)N4CCCC4)c3=O)n2)c1OC	i
Cc1cccc(OCC(=O)NCC#CCN2CCOCC2)c1	i
COC(=O)c1c(C)cc(OC2=C(C)C(=O)C(O)C(C)(OC)C2O)c(C)c1O (centres undefined)	i
CCOc1ccc(-c2noc(-c3nnn(-c4cc(Cl)ccc4OC)c3N)n2)cc1	i
Cc1c(CNC(=O)Cc2ccccc2F)sc2nc(-c3ccc(F)cc3)cn12	i
CCN1CCN(CCOc2ccc3c(=O)c(-c4ccc(OC)c(OC)c4)coc3c2)CC1	i
Cc1cn2c3c(=O)n(CC(N)=O)c(=O)n(C)c3nc2n1CCCO	i
COc1ccc(NC(=O)Cn2c(-c3ccc(C)cc3)ncc(C#N)c2=O)c(OC)c1	i
COC1CCN(S(=O)(=O)c2ccc(C(C)(C)C)cc2)CC1	i
COc1ccc2c(c1)c(CC(=O)NCc1cccc(C(F)(F)F)c1)c(C)n2C(=O)c1ccc(Cl)cc1	i
Cc1cc(CNC(=O)C(=O)Nc2ccc(C)c(Cl)c2)c(C)o1	i
O=C(CN1CC(c2nc(-c3ncccn3)no2)C1)Nc1ccc(OC(F)(F)F)cc1	i
CCC(C(=O)Nc1c2c(nn1CC(=O)NCc1ccccc1)CSC2)c1ccccc1 (centres undefined)	i
O=C(c1ccccc1Br)N1CCC2(CC1)OCCS2	i
Cc1ccc2c(NC(=O)c3cccc([N+](=O)[O-])c3)cccc2n1	i
Cn1c(=O)c([N+](=O)[O-])c(NCc2ccc3c(c2)OCO3)c2ccccc21	i

14 structures from above, ordered by SMILES length, low to high.
SMILES	GIRK2 act
O=C(c1ccccc1Br)N1CCC2(CC1)OCCS2	i
Cc1cccc(OCC(=O)NCC#CCN2CCOCC2)c1	i
CCOC(=O)N1CCN(C(=O)C2CSCCC(=O)N2)CC1 (centres undefined)	i
COC1CCN(S(=O)(=O)c2ccc(C(C)(C)C)cc2)CC1	i
O=C(Nc1ccc2c(=O)c3cccc(F)c3oc2c1)c1ccco1	i
Cc1cc(CNC(=O)C(=O)Nc2ccc(C)c(Cl)c2)c(C)o1	i
Cc1cn2c3c(=O)n(CC(N)=O)c(=O)n(C)c3nc2n1CCCO	i
Cc1ccc2c(NC(=O)c3cccc([N+](=O)[O-])c3)cccc2n1	i
Cc1c(CNC(=O)Cc2ccccc2F)sc2nc(-c3ccc(F)cc3)cn12	i
CCOc1ccc(-c2noc(-c3nnn(-c4cc(Cl)ccc4OC)c3N)n2)cc1	i
Cn1c(=O)c([N+](=O)[O-])c(NCc2ccc3c(c2)OCO3)c2ccccc21	i
COc1cccc(-c2noc(Cn3cccc(S(=O)(=O)N4CCCC4)c3=O)n2)c1OC	i
COc1ccc2c(c1)c(CC(=O)NCc1cccc(C(F)(F)F)c1)c(C)n2C(=O)c1ccc(Cl)cc1	i
Cc1cc(NC(=O)c2ccc([N+](=O)[O-])o2)n(-c2nc3c(cnn3-c3cccc(C)c3C)c(=O)[nH]2)n1	i

(cont.)
SMILES	GIRK2 act
CCOCCn1c(=O)c2c(nc3n(-c4ccccc4C)c(C)c(C)n23)n(C)c1=O	i
Cc1cc(CNC(=O)C(=O)Nc2ccc(OC(F)(F)F)cc2)c(C)o1	i
CCCn1c(=N)c(S(=O)(=O)c2ccc(C)c(C)c2)cc2c(=O)n3cccc(C)c3nc21	i
O=C(c1cc2ccccc2oc1=O)N1CC(Oc2nc3c(Cl)cccc3s2)C1	i
COc1ccc(C2(CNC(=O)c3ccc(Br)o3)CCOCC2)cc1	i
Cc1nc2ccccc2n1CC1CCN(C(=O)CN2C(=O)c3ccccc3C2=O)CC1	i
COc1cc(OC)cc(C(=O)Nc2ccc(-n3c(C)nc4ncccc4c3=O)cc2)c1	i
C[C@@H]1CC(=O)c2c(ccc3c2C(=O)c2cccc(O)c2C3=O)[C@H]1O	i
N#C/C(=C\c1cccc2nccnc12)c1nc2ccccc2s1	i
CC(=O)Nc1ccc(S(=O)(=O)Nc2ccc3c(c2)CCCN3C(=O)c2ccccc2)cc1	i
CSc1ccccc1C(=O)N1CC2CC1C(=O)O2 (centres undefined)	i
Cc1cc(O)c(C(c2cccc(F)c2)c2c(O)cc(C)n(CCO)c2=O)c(=O)n1CCO	i
COc1ccc(NC(=O)CSc2nc3c(-c4ccccc4)c[nH]c3c(=O)n2C(C)C)c(OC)c1	i
N#Cc1c(NC(=O)CN2CCOCC2)sc2c1CCCC2	i
S=c1[nH]cc(-c2ccccc2)n1-c1cccc(Cl)c1	i
COc1ccc(Cl)cc1S(=O)(=O)NCc1ccc(C(O)c2cccs2)s1 (centres undefined)	i
COc1cccc(Cn2nc(C3CCN(S(C)(=O)=O)CC3)n(C)c2=O)c1	i
Cc1ccccc1N1CCN(S(=O)(=O)N2CCCCC2)CC1	i
CCn1c(C)c(C(C)=O)c2cc(OCC(O)CN3CCN(CCO)CC3)ccc21 (centres undefined)	i
Cc1cn2c3c(=O)n(CCCc4ccccc4)c(=O)n(C)c3nc2n1CC(C)C	i
